From PubChem BioAssay
Ecoli growth: blocks Escherichia coli growth. OD600, 23 h; stronger effect = lower value. OD600 absorbance (no concentration beside the values). actives 0.21% (n = 330,000). AID 1053175;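 active = OD600 absorbance below the run mean of sample wells minus 3.6 SD, in any replicate, cut at about 0.56 in these data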;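 note: stock transfer was 300 nL into about 60 µL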
FGF22 binding: binders of recombinant human FGF22 by thermal shift. actives 1.5% (n = 340,000). SYPRO orange fluorescence; percent of sucrose octasulfate shift, DMSO zero. calls only at 9.99 µM;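 active = melting point raised past a set limit in the mean and every replicate; inconclusive = no clear call; three in four hits are not shown here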
Target sequence (Q9HCT0 whole entry, looked up): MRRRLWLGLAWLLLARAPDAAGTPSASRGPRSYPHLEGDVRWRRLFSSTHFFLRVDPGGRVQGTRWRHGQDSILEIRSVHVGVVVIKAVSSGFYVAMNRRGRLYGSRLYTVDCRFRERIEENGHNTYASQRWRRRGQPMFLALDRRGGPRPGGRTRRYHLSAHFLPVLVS
AF4-AF9 inh: blocks AF4 peptide binding to human AF9; P42568; AlphaScreen, biotin-AF4 peptide binding to FLAG-AF9; inhibition, % at 10 µM; actives 0.47% (n = 350,000); AID 651704;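 active = every replicate reaching a set inhibition limit, whatever the replicate mean, cut at about 25% in these data; inconclusive = mean inhibition reaches that limit but some replicates miss it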;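 note: 0% = plate neutral control median and 100% = total signal loss; the record names both 10 and 1 µM as test concentration; the first replicate is given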
Target sequence (P42568 whole entry, looked up): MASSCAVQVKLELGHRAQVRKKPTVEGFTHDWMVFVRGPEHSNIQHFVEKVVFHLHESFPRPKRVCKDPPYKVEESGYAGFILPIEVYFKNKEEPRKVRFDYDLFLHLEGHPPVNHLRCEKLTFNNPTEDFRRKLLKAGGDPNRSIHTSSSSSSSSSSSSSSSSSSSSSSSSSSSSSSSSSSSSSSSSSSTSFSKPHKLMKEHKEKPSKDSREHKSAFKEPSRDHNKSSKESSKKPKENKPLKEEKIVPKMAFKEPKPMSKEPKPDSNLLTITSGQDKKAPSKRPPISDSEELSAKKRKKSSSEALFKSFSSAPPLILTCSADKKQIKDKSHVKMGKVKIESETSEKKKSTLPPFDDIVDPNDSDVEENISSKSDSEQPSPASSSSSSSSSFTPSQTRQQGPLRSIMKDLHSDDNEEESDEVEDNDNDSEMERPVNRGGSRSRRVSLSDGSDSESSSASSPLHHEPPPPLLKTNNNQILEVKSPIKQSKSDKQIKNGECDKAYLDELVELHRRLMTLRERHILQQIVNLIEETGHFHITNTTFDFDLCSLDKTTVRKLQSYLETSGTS
RanGTP-Imp inh: disruptors of Ran-importin-beta complex formation – biochemical, FRET, CFP-Ran, YFP-importin-beta, homogeneous, primary screen; cell-free CFP-Ran/YFP-importin-beta FRET ratio; inhibition, % (test concentration not listed); actives 1.1% (n = 300,000); AID 2216;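 active = most replicates above 15%; inconclusive = exactly half above 15%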;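 note: 0% = DMSO wells and 100% = Ran loaded with GDP instead of GTP; wells of about 40 µL received 100 nL stock; the first replicate is given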
HNF4A DNA FP: change in binding of human HNF4 alpha to DNA | AID 1224865 | actives 0.3% (n = 360,000) | HNF4a-FITC DNA binding, fluorescence polarization, 1 h | activity change, % at 10 µM; in the data active = activity change above about 30%, passing the limit was not always enough;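 note: controls were the assay level and a saturating level of protein; the project sought stronger binding though the title names inhibitors; some compounds called inactive have numbers as strong as hits; positive values seem to mean higher polarization but the record does not say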
Vif TR-FRET: inhibitors of Vif binding to APOBEC3G peptide, primary screen, biochemical, TR-FRET, GST-Vif 1-94, biotin-A3G peptide, dose response retest (AID 1117319); TR-FRET GST-Vif / biotin-A3G peptide binding; higher % means a stronger effect; test concentration not given here; strong numbers were not always called active; inhibition, %, or IC50 in µM where a hit was titrated; actives 0.57% (n = 260,000);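 active = above the screen mean plus three standard deviations and confirmed in dose response; inconclusive = results disagree or hit not tested in dose response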;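 note: Vif residues 1-94 fused to GST binding biotinylated APOBEC3G peptide 110-148; 0% = full assay without inhibitor and 100% = GST in place of GST-Vif; retest series ran down from 100 µM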
UCH37 DUB inh: blocks the human deubiquitinase UCH37 | Q9Y5K5 | purified proteasome/UCH37, Ub-AMC cleavage fluorescence | inhibition, % (test concentration not listed) | actives 0.33% (n = 330,000);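 active = mean of two replicates above 20%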;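 note: 0% = compound-free wells with enzyme and 100% = wells lacking proteasome; stock transfer was 100 nL into about 20 µL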
Target sequence (Q9Y5K5 whole entry, looked up): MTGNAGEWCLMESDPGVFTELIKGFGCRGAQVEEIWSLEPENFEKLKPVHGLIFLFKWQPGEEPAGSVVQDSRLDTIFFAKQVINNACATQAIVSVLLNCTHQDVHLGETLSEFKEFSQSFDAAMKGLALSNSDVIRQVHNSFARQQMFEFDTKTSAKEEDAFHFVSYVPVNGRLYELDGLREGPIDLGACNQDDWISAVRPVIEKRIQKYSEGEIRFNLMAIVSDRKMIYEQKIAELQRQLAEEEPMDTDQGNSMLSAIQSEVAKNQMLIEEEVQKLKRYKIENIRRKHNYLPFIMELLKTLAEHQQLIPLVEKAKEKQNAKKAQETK
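System: Proteasome-associated human UCH37 deubiquitinase; Input: 0.15 nM proteasome in added enzyme buffer; Also added: Ub-AMC substrate from 1 µM stock; Incubation: 30 min compound-proteasome preincubation then 25 min substrate reaction, room temperature; Detection: fluorescence, ex 355 nm, em 460 nm; Read-out: % inhibition of Ub-AMC cleavage fluorescence; Benchmarks: no-proteasome and no-compound wells.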
* hit, by the source's call; i = inactive; ? = inconclusive; / = not tested or not shown; & = joins results of further samples. Some of the compounds tested. The share of hits here may be higher or lower than overall.

SMILES | Ecoli growth | FGF22 binding | AF4-AF9 inh | RanGTP-Imp inh | HNF4A DNA FP | Vif TR-FRET | UCH37 DUB inh
O=C(COc1cccc(C(F)(F)F)c1)Nc1ccc(S(=O)(=O)N2CCCCC2)cc1 | 0.647 | i | 0.0 | 2.0 | -1.4 | -4.1% | 0.1
COc1ccc(CNC(=O)CN(c2ccc(OC)cc2)S(=O)(=O)c2c(C)nn(C)c2C)cc1 | 0.68 | / | / | -1.2 | 0.8 | 2.9% | -0.8
CCCNC(=O)C1CC(c2ccccc2[N+](=O)[O-])=NO1 (stereo unspecified) | 0.701 | i | 3.0 | 7.8 | 0.3 | / | -1.4
COc1cc(/C=C2\SC(=S)N(CCC(=O)Nc3cccc(O)c3)C2=O)cc(OC)c1OC | 0.677 | i | -0.1 | -3.5 | 3.4 | -2.0% | 3.7
COc1cc2nc(NC(=O)c3ccccc3)sc(=O)c2cc1OC | 0.676 | i | 1.6 | -0.7 | -0.6 | 6.5% | -1.0
CC1(C)CN(C(Cc2ccccc2)C(N)=O)C1=O (stereo unspecified) | 0.692 | i | -1.7 | 2.0 | -1.1 | -3.8% | 1.0
Fc1ccc(Oc2nnnn2-c2ccccc2)cc1 | 0.646 | i | -2.1 | -1.4 | -0.1 | 6.3% | 3.1
CN1C(=O)CSc2ccc(NC(=O)NCc3ccc(F)cc3)cc21 | 0.648 | i | -5.8 | -5.0 | 1.1 | ? | 1.6
O=C(CSc1cccc[n+]1[O-])c1ccc(-c2ccccc2)cc1 | 0.682 | i | 1.2 | 0.5 | -1.3 | 2.2% | 1.8
O=C(Nc1ccc(Oc2ccccc2)nc1)C1CCN(Cc2ccco2)CC1 | / | i | 3.9 | 3.5 | -2.4 | / | /
COc1ccc(CNC(=O)N2CCN(c3cccc(Cl)c3)CC2)cc1OC | 0.662 | i | 2.2 | 3.9 | -2.7 | / | 2.1
Cc1ccccc1C(=O)N1CCC(n2nccc2NC(=O)CCOc2ccccc2)CC1 | 0.67 | i | 0.1 | 3.7 | 2.3 | / | 0.2
COc1cccc(NC(=S)NNC(=O)Cn2nc([N+](=O)[O-])cc2C)c1 | 0.686 | i | -1.6 | -5.9 | -2.3 | 4.1% | -2.4
CCOC(=O)c1c(C)[nH]c(C(=O)OCC(=O)N2CC(C)OC(C)C2)c1C (stereo unspecified) | 0.729 | / | / | -1.1 | 3.9 | 14.7% | 0.6
C[C@@H]1CN([C@H](C)CO)S(=O)(=O)c2ccc(-c3ccc(C#N)cc3)cc2O[C@H]1CN(C)C(=O)Nc1cc(F)ccc1F | / | i | -0.6&-14.9&-14.6 | / | -0.5 | / | /
O=C(CSc1nnc(CNc2ccc(F)cc2)n1Cc1ccco1)NC1CC1 | 0.709 | / | / | -0.1 | -1.6 | 5.7% | 1.2
COc1cccc(NC(=O)NC2CCCCC2C)c1 (stereo unspecified) | 0.686 | i | -3.0 | ? | 0.0 | 5.2% | 2.1
Cc1ccc2nc(-c3cccc(Cl)c3)c(Cc3ccccc3)n2c1 | / | i | -1.2 | / | 8.2 | / | /
CC(=O)Nc1ccc(SCC(=O)NNC(=O)CN(C)S(=O)(=O)c2ccc(C)cc2)cc1 | 0.675 | i | -2.7 | / | 4.2 | -3.2% | 3.9
CC(NC(=O)COC(=O)c1ccc(N(C)C)cc1)c1ccccc1 (stereo unspecified) | 0.688 | i | -5.0 | -3.2 | -0.2 | -0.5% | 1.8
COc1ccccc1NS(=O)(=O)c1cc(NC(=O)c2cc(F)c(F)c(F)c2F)ccc1N1CCOCC1 | 0.66 | i | -0.2 | / | 10.0 | -1.9% | 1.0
COc1ccc(NC(=S)N/N=C2\CC(C)(C)Oc3ccc(OC)cc32)cc1 | / | i | 3.8 | -2.2 | -0.2 | / | /
COc1cc(C2SCC(=O)N2CCc2ccc(OC)c(OC)c2)ccc1O (stereo unspecified) | 0.688 | / | -1.6 | -1.6 | 5.7 | -6.5% | 1.4
C[C@H]1CN([C@@H](C)CO)C(=O)CCCn2cc(nn2)CO[C@@H]1CN(C)C(=O)Nc1cccc2ccccc12 | / | i | 0.7&-2.2&1.4 | / | -3.0 | -0.3% | /
Clc1ccccc1-c1nnc2sc(-c3ccc(Br)o3)nn12 | 0.676 | / | / | -1.6 | -1.9 | -21.2% | -1.9
CCc1ccccc1NC(=O)Nc1cccc(F)c1 | 0.641 | i | -3.2 | 1.9 | 0.8 | 22.6% | -1.6
CCN(CC)c1nc(Nc2ccccc2)nc(Oc2ccc(=O)[nH]n2)n1 | 0.679 | / | / | 1.8 | 0.6 | 2.7% | 1.4
COc1ccc(C)cc1S(=O)(=O)N1CCN(c2ccccc2)CC1 | 0.715 | i | -4.6 | 1.5 | 4.6 | / | 2.9
Cc1ccccc1-n1nc(C)c2c1N=C1C(Cl)=CC(Cl)=CN1C2c1ccc(C(=O)O)cc1 (stereo unspecified) | 0.709 | / | / | -0.4 | -0.7 | -7.3% | -1.8
Nc1ccc(Sc2nnnn2-c2ccccc2)c(Cl)c1 | 0.7 | / | / | -6.1 | 3.8 | -5.0% | 4.0
COC(=O)[C@H]1C[C@@H]1[C@H](NC(=O)OCc1ccccc1)c1ccccc1 | / | i | -3.9 | 5.4 | 1.3 | -8.4% | 3.1
CC(C)(C)c1ccc(Cn2ccc(-c3ccc4c(c3)OCO4)n2)cc1 | 0.683 | / | / | -2.6 | -1.7 | -2.2% | 5.2
COC(=O)c1ccc(-c2cc(CC3(C(=O)OC)CCN(C(=O)OC(C)(C)C)CC3)on2)cc1 | 0.659 | i | -0.2 | 1.2 | -2.6 | / | -0.8
O=C(CCCC(=O)N(CC(=O)NC1CCCCC1)c1ccccc1F)Nc1ccccn1 | 0.709 | i | 2.7 | 4.3 | 1.8 | 4.4% | 3.1
FC(F)(F)c1ccccc1Cc1c(C2CCCCC2)nc2ccc(Cl)cn12 | / | i | 2.4 | / | 5.2 | / | /
CN(C)c1cc[n+](CC(=O)c2ccc(Br)cc2)cc1 | 0.709 | i | -2.9 | 1.9 | -0.1 | -0.5% | 1.9

Profiles, looked up by structure. Order of screens: Ecoli growth | FGF22 binding | AF4-AF9 inh | RanGTP-Imp inh | HNF4A DNA FP | Vif TR-FRET | UCH37 DUB inh
Record of CN(C)c1cc[n+](CC(=O)c2ccc(Br)cc2)cc1 : 0.709 | i | -2.9 | 1.9 | -0.1 | -0.5% | 1.9
Record of COc1ccc(C)cc1S(=O)(=O)N1CCN(c2ccccc2)CC1 : 0.715 | i | -4.6 | 1.5 | 4.6 | / | 2.9

(listing goes on)
SMILES | Ecoli growth | FGF22 binding | AF4-AF9 inh | RanGTP-Imp inh | HNF4A DNA FP | Vif TR-FRET | UCH37 DUB inh
CC(=O)c1sc(NC(=O)COc2ccc(Br)cc2)nc1C | 0.728 | i | -0.1 | 0.1 | 3.1 | / | 2.1
CC(C)Oc1ccc(OCCn2c(=S)[nH]c3c(N)ncnc32)cc1 | 0.66 | i | -3.5 | ? | -1.6 | 0.0% | 0.2
O=C(O)c1ccc(CS(=O)(=O)c2ccc(Br)cc2)cc1 | 0.668 | i | -1.5 | 6.9 | 0.2 | / | -1.0
Cc1ccc(Cl)cc1NC(=O)[C@@H]1CCC(=O)N1C1OC(=O)c2ccccc21 (stereo partly specified) | 0.691 | i | 0.2 | -3.5 | 0.6 | / | -0.4
O=S(=O)(c1ccc(F)c2ccccc12)N1CCCCC1 | 0.708 | / | / | 0.6 | -3.8 | 27.1% | 0.1
Cc1cccc(NC(=O)COC(=O)CN2CCCCCC2=O)c1C | 0.672 | i | 1.2 | / | 0.6 | -0.2% | -0.5
Cc1csc(SCc2nc3scc(-c4ccccc4)c3c(=O)[nH]2)n1 | 0.71 | i | -0.4 | -2.0 | 2.9 | 14.0% | 3.0
c1ccc(CNCCN2CCNCC2)nc1 | 0.732 | / | / | -1.1 | 4.5 | 0.6% | -0.4
O=C(COC(=O)c1cc([N+](=O)[O-])ccc1N1CCOCC1)Nc1c(Cl)cccc1Cl | 0.672 | i | -3.9 | -2.0 | -1.3 | 0.3% | 8.6
CC(=O)Nc1cccc2ncccc12 | 0.678 | i | 3.2 | 2.8 | -2.5 | 18.8% | 0.9
O=C(CCS(=O)(=O)c1ccccc1)OCc1ccc([N+](=O)[O-])cc1 | 0.702 | i | 0.6 | 2.7 | -2.4 | 5.1% | -0.4
CCOC(=O)c1cccc(C(=O)OCC)n1 | 0.695 | / | -2.4 | -0.1 | -1.9 | -5.7% | 2.9
CN(CCN1CCOCC1)Cc1nc(-c2ccccc2)no1 | 0.635 | i | -3.6 | 1.8 | -3.5 | 5.3% | -0.1
CCCCn1c(N)c(N(C(=O)CSc2nnnn2-c2ccccc2C)C2CCCC2)c(=O)[nH]c1=O | 0.661 | i | -2.3 | / | 3.2 | -9.1% | 4.5
CCC(C)Cn1cnc2c(SCc3ccccn3)nc(N)nc21 (stereo unspecified) | 0.625 | i | 0.4 | / | -0.4 | 13.2% | 0.2
CC(NC(=O)c1cccs1)C1CCCO1 (stereo unspecified) | 0.671 | i | -6.0 | 4.4 | -1.3 | / | 1.3
S=C1NCN(Cc2ccco2)CN1 | 0.678 | i | -3.4 | -2.7 | 2.4 | / | 4.0
CC(C)C(=O)Nc1ccc2oc(-c3cc(F)c(F)cc3Cl)nc2c1 | 0.699 | / | / | 2.3 | 0.6 | -14.7% | -60.1
O=C1C=C(c2n[nH]nc2-c2ccccc2)C[C@@H](c2ccc(F)cc2)C1 | / | i | -1.2 | / | 4.8 | -1.6% | /
O=C(Nc1ccc(Cl)cc1F)C1CC1 | 0.638 | / | / | 0.7 | 1.1 | 8.3% | 1.9
CCOC(=O)C(=O)Nc1sc(C(=O)N(CC)CC)c(C)c1C#N | 0.735 | i | -12.1 | -3.8 | -5.2 | / | 9.6
Cc1c(NC(=O)C(C)Sc2n[nH]c(N)n2)c(=O)n(-c2ccccc2)n1C (stereo unspecified) | 0.741 | / | / | -1.9 | 0.2 | 14.8% | 3.6
Clc1cccc(CSc2ncn(-c3ccccc3)n2)c1 | 0.67 | / | / | -2.8 | 0.1 | 4.4% | 3.1
CC(C)(C)c1ccc(S(=O)(=O)N2CCN(c3ccccn3)CC2)cc1 | 0.688 | i | -1.0 | 0.9 | -6.9 | / | 5.2
O=C(COc1ccccc1)Nc1cccc(-c2nnc(-c3ccccc3)o2)c1 | 0.757 | / | / | 2.5 | 3.3 | -0.8% | 0.8
CCNC(=O)C1(C)CCCN(C(=O)c2cc(C)n(C(C)(C)C)n2)C1 (stereo unspecified) | / | i | -0.7 | / | 2.1 | / | /
Cn1c(=O)[nH]c(=O)c2c1nc(NN)n2CCOc1ccccc1 | 0.705 | i | 3.3 | 2.2 | 6.0 | 24.5% | 3.7
CCSc1nnc(NC(=O)COc2ccccc2[N+](=O)[O-])s1 | 0.676 | i | -1.1 | -1.6 | -4.3 | 11.2% | 6.6
Cc1cc(C(=O)N2CC(C)CC(C)C2)c(C)o1 (stereo unspecified) | 0.684 | i | -2.3 | / | -1.1 | / | 1.5
COc1cc2c(cc1N/C=C(\C#N)c1nc(-c3ccc(F)cc3)cs1)oc1ccccc12 | / | i | 10.5 | 3.2 | 11.6 | -8.4% | /
Nc1nc2c(c(=O)[nH]1)C(c1cccc3ccccc13)C1=C(N2)c2ccccc2C1=O (stereo unspecified) | 0.663 | i | 4.3 | / | -3.4 | 6.5% | 4.5
CC(C)NC(=O)c1c(CSc2ccccc2)noc1C(=O)NCc1ccccc1 | 0.645 | i | / | 7.0 | 4.6 | / | 0.0
COc1nc(Nc2cccc(F)c2)nc(OC)n1 | 0.666 | i | -3.9 | ? | 0.4 | -11.7% | 0.1
O=C(CNC(=O)c1cccc(F)c1)N/N=C/C=C/c1ccccc1 | / | i | -0.9 | -0.8 | 2.9 | 8.4% | /
